MT1-MMP promoter: inhibitors of MT1-MMP promoter transcription, cell-based, luciferase reporter, luminescence (AID 618); MT1-MMP promoter luciferase reporter cells, luminescence; 87,000 tested, 0.62% active; calls from a first round at 10 µM; hits with a dose series show EC50 in µM;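 active means over half of the reporter light lost at 10 µM or EC50 under 50 µM; inactive means the rest and hits that failed the dose series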;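 further: actives suppress MT1-MMP promoter-driven transcription so potencies describe inhibitors; HT1080 fibrosarcoma cells; overnight exposure; toxic or luciferase-blocking compounds were not removed from the actives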
WNV NS2B-NS3 inh: inhibitors of West Nile virus NS2B-NS3 protease | P06935 | AID 577 | z-score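 (tested at a level between 10 and 100 µM)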 | 65,000 tested, 0.18% active | WNV NS2B-NS3 protease, fluorogenic substrate Ex360/Em465; stronger effect = lower value;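 active means z-score at -3 or under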;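 further: score is relative to mean and spread of the compound wells of a plate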
Target sequence (P06935 1371-1501 limits assumed): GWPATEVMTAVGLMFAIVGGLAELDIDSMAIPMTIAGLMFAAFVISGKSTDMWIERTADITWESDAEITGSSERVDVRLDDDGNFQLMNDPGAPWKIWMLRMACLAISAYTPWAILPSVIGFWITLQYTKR
Target sequence (P06935 1502-1679 limits assumed): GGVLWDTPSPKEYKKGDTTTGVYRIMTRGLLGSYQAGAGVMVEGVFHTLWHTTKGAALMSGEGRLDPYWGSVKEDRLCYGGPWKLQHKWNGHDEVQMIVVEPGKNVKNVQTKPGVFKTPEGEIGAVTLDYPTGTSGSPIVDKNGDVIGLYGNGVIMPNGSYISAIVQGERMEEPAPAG
Hsc70 ATP site: Hsc70 inhibitors, probe displacement, primary screen, biochemical, fluorescence polarization (AID 568) | Hsc70 fluorescence polarization, probe displacement; higher % means a stronger effect; strong numbers were not always called active | one-dose displacement, % at 20 µM; IC50 in µM for titrated hits | 83,000 tested, under 10 active;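 active means displacement above 50% without optical interference and an IC50 on retest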;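 further: ATPase domain with a fluorescein-tagged ATP probe; 0% = vehicle and 100% = excess ADP; read after one hour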
* hit, by the source's call; i = inactive; · = not tested or not shown.

SMILES	MT1-MMP promoter	WNV NS2B-NS3 inh	Hsc70 ATP site
CC(=O)N1C(=O)C2(C(C#N)=C(N)Oc3cc(C)oc(=O)c32)c2ccccc21 (centres undefined)	i	1.3	2.2%
COc1ccc(OC)c(C2C(C(C)=O)=C(O)C(=O)N2CCc2ccc(OC)c(OC)c2)c1 (centres undefined)	i	·	1.7%
COC(=O)CSc1nnc2n(-c3ccc(OC)cc3)c(=O)c3c4c(sc3n12)CCCCC4	i	0.72	-3.1%
C=CCn1c(N)cc(=O)nc1SCC(=O)NC(C)c1ccccc1 (centres undefined)	i	0.58	-5.3%
CC(C)(C)c1ccc(C(=O)N2CCC(C(=O)NCc3ccco3)CC2)cc1	i	·	0.6%
O=C(CN1CCCCCC1=O)OCc1ncc(-c2ccccc2)o1	i	-0.55	6.6%
CC(=O)Oc1ccc(-c2cccc(C(=O)Oc3ccccc3)c2)cc1	i	·	-6.1%
CCOC(=O)c1c(C)[nH]c(C(=O)COC(=O)c2oc3ccc(OC)cc3c2C)c1C	i	-1.1	-9.4%
Cc1nnc2n(c1=O)C(CS(=O)(=O)c1ccccc1)CS2 (centres undefined)	i	0.14	-1.6%
COC(=O)c1ccc(Oc2nc(Nc3ccccc3)nc(N(C)C)n2)cc1	i	-1.4	11%
CCN(CC)S(=O)(=O)c1ccc(C(=O)Nc2c3c(nn2C(C)(C)C)CS(=O)(=O)C3)cc1	i	0.47	3.9%
COc1ccc(C(=O)C(CO)Oc2ccccc2OC)cc1OC (centres undefined)	i	-0.04	-4.7%
COC(=O)COc1ccc(S(=O)(=O)NCC2CCCO2)cc1Cl (centres undefined)	i	-0.68	0.2%
Cn1c(=O)c2c(nc(NCCCO)n2C/C=C/c2ccccc2)n(C)c1=O	i	-0.66	-4.0%
Cc1cccc(NC(=O)c2cnc3n(c2=O)CCS3)c1	i	-0.54	2.2%
COc1cc(C2C3C(=O)N(c4ccc(F)cc4)C(=O)C3ON2c2ccccc2)ccc1O (centres undefined)	i	1.1	-4.6%
COc1ccc(-c2nc(C#N)c(N3CC(C)OC(C)C3)o2)cc1OC (centres undefined)	i	0.93	3.8%
O=C(O)C1CCN(C(=O)c2ccc(Cl)cc2)CC1	i	·	-2.1%
COc1ccc2c(c1OC)C(=O)OC2CC(=O)c1ccc(O)c(O)c1 (centres undefined)	i	·	-5.7%
O=C(NC1(C(F)(F)F)NC(=O)N(Cc2ccccc2)C1=O)c1cccnc1 (centres undefined)	i	·	3.0%
CCOC(=O)N1CCN(S(=O)(=O)Cc2ccccc2)CC1	i	-2.5	5.1%
CCCS(=O)(=O)N1CCN(Cc2ccccc2C(F)(F)F)CC1	i	0.22	-4.6%
O=C(Nc1ccc2oc(-c3ccccc3)nc2c1)c1cccs1	i	·	2.3%
O=C(c1ccccc1)c1coc2ccc(O)c(CN3CCOCC3)c12	i	-0.54	-0.1%
COc1ccc(CNC(=O)C2CCN(S(=O)(=O)c3c(C)n[nH]c3C)CC2)cc1	i	-0.68	-2.3%
COC(=O)c1[nH]c2ccc(Cl)cc2c1NC(=O)CN1CCC(C(N)=O)CC1	i	-1.1	12%
COc1ccc(C(=O)Nc2nc(-c3cccs3)cs2)cc1	i	1.7	2.2%
NC(=O)c1ccc(C2SCC(=O)N2Cc2ccccc2)cc1 (centres undefined)	i	-0.53	-0.7%
COCCN1C(=O)C(CC(=O)Nc2ccccc2)SC1=Nc1ccc(OC)cc1 (centres undefined)	i	·	-1.3%
CCC(C)(C)NC(=O)C(c1cccn1C)N(Cc1ccc(OC)cc1)C(=O)Cn1nnc2ccccc21 (centres undefined)	i	·	4.1%
CC1CCc2c(sc(NC(=O)CSc3ncnc4c3cnn4-c3ccccc3Cl)c2C#N)C1 (centres undefined)	i	·	-1.1%
Cc1ccc(C)c(N(C(=O)CCC(=O)Nc2cc(C)on2)C(C(=O)NC2CCCC2)c2ccco2)c1 (centres undefined)	i	-0.39	2.2%
O=S(=O)(Nc1ccc2c(c1)nc1n2CCN(Cc2ccccc2)C1)c1ccc(F)cc1	i	0.02	1.2%
CCSc1nnc(NC(=O)c2csc(C)c2)s1	i	-0.06	-2.0%
COc1ccc(C(CNC(=O)COc2ccccc2C#N)N2CCOCC2)cc1 (centres undefined)	i	-0.22	3.3%
Cc1ccc(C)c2[nH]c(=O)c(C(c3nnnn3C3CCCC3)N3CCOCC3)cc12 (centres undefined)	i	0.24	-0.1%
CN1CCN(CCCNC(=O)c2cc3c(=O)n(C)c4ccccc4c3s2)CC1	i	0.63	0.0%
Cn1c(Cc2ccccc2)nnc1SCC(=O)N1CCN(c2ccccc2)CC1	i	-0.11	4.4%
CC1CCCCC1NS(=O)(=O)c1ccc(-n2cnnn2)cc1 (centres undefined)	i	-1	-1.0%
CCn1c(SCC(=O)Nc2nc(C)c(C)s2)nnc1-c1cccnc1	i	0.89	-0.9%
COc1cc(OC)c(C2N(C)c3ccccc3N2C)cc1OC	i	0.75	-2.8%
Cc1ccc(-n2c(SCC(=O)NCc3ccco3)nnc2-c2cccnc2)cc1	i	·	-1.5%
N#CCCN(C(=O)CSc1ccc2c(c1)OCCO2)c1ccc(F)cc1	i	·	9.1%
CCCNC(=O)Cn1cccc1C(=O)c1ccccc1	i	-0.3	2.9%
Clc1ccc2nc(CN3CCCc4ccccc43)cn2c1	i	0.12	4.8%

Quoted at random: 5 records from the list
SMILES	MT1-MMP promoter	WNV NS2B-NS3 inh	Hsc70 ATP site
COc1ccc(C(=O)C(CO)Oc2ccccc2OC)cc1OC (centres undefined)	i	-0.04	-4.7%
O=C(NC1(C(F)(F)F)NC(=O)N(Cc2ccccc2)C1=O)c1cccnc1 (centres undefined)	i	·	3.0%
CC(=O)Oc1ccc(-c2cccc(C(=O)Oc3ccccc3)c2)cc1	i	·	-6.1%
COC(=O)COc1ccc(S(=O)(=O)NCC2CCCO2)cc1Cl (centres undefined)	i	-0.68	0.2%
Clc1ccc2nc(CN3CCCc4ccccc43)cn2c1	i	0.12	4.8%

(list continues)
SMILES	MT1-MMP promoter	WNV NS2B-NS3 inh	Hsc70 ATP site
COc1cc(NC(=O)c2ccco2)c(OC)cc1NC(=O)Nc1cccc(Cl)c1	i	1.4	-1.9%
COc1ccccc1N1CCN(C(=O)CSc2nc3ccccc3c(=O)n2CC2CCCO2)CC1 (centres undefined)	i	-0.15	6.8%
Cn1c(C(=O)NCC2CCCO2)cc2c(=O)[nH]c3ccccc3c21 (centres undefined)	i	1.1	-4.2%
CCOc1ccc2nc(NC(=O)C3CCCN(S(=O)(=O)c4cccs4)C3)sc2c1 (centres undefined)	i	-0.19	-0.4%
Cc1ccc(Cl)cc1N1CCN(C(=O)C2CCC(=O)N2C(C)C)CC1 (centres undefined)	i	-1	-4.8%
COc1cccc(NC(=O)Cn2cnc3sc(C)c(S(=O)(=O)N4CCN(C)CC4)c3c2=O)c1	i	·	0.4%
COc1ccc(C2(C(=O)NCCCN3CCOCC3)CCOCC2)cc1	i	-0.47	5.5%
CC1CSc2nnc(CCc3ccccc3)n21 (centres undefined)	i	-0.75	-2.4%
CCCSC1=N/C(=C\c2ccsc2)C(=O)S1	i	-0.46	0.5%
CCOC(=O)c1sc(N(C)C(C)=O)nc1C	i	·	-3.1%
CCn1c(SC/C=C/c2ccccc2)nnc1-c1cccs1	i	-0.21	3.1%
CC(=O)Nc1ccccc1C(=O)N1CCc2ccccc21	i	0.55	-2.2%
Cn1c(COc2ccccc2)nnc1SCc1cc(=O)[nH]c2ccccc12	i	-0.43	3.7%
Fc1cc2nccnc2cc1N1CCSCC1	i	0.59	6.8%
CCC(=O)c1ccc(N2CCN(C(=O)COc3ccc(F)cc3)CC2)c(F)c1	i	-0.37	1.8%

Compound profiles, as listed above:
Record of `COc1cc(OC)c(C2N(C)c3ccccc3N2C)cc1OC` : MT1-MMP promoter: i; WNV NS2B-NS3 inh: 0.75; Hsc70 ATP site: -2.8%
Record of `Cc1ccc(-n2c(SCC(=O)NCc3ccco3)nnc2-c2cccnc2)cc1` : MT1-MMP promoter: i; WNV NS2B-NS3 inh: ·; Hsc70 ATP site: -1.5%

The list goes on:
SMILES	MT1-MMP promoter	WNV NS2B-NS3 inh	Hsc70 ATP site
CC1=C(C(=O)Nc2ccccc2)C(c2ccc(C)o2)n2c(s/c(=C\c3ccco3)c2=O)=N1 (centres undefined)	i	0.6	-4.3%
CCCCOC(=O)n1c(SCC(=O)N(CC)CC)nc2ccccc21	i	-0.05	3.2%
CC1(C)CC(=O)c2cn3c(nc2C1)nc1ccccc13	i	-1.4	1.3%
COC(=O)C1=C(CSCc2ccccc2)NC(=O)NC1c1cc(C)ccc1C (centres undefined)	i	·	-0.3%
CNc1nnc(CSc2nc(C)cc(C)n2)s1	i	0.37	-4.3%
CC1(C)Cc2c(sc3c2C(=O)N(c2ccccc2)C2=NCCCN23)CO1	i	-0.35	0.0%
O=C(c1ccccc1)N1CCN(CC#Cc2ccccc2)CC1	i	1.3	3.6%
Cc1ccc(P(=O)(OCCN2CCOCC2)C(C)(C)C)o1 (centres undefined)	i	-0.35	10%
CCOC(=O)c1[nH]c2ccccc2c1NC(=O)COC	i	1.7	-6.6%
COc1ccc(C)cc1NC(=O)CN1CCN(S(=O)(=O)c2ccc(Br)cc2)CC1	i	0.55	2.1%
O=C(CCc1nc(-c2ccccc2F)no1)NCCc1ccccc1Cl	i	-0.89	-4.4%
O=C(Nc1ccc(Cl)cc1C(=O)Nc1ccccn1)c1ccco1	i	-1.5	9.4%
CCN(CC)CCCNc1oc(-c2ccc(OC)c(OC)c2)nc1C#N	i	2.5	-3.1%
Cc1c(-c2cccs2)[n+](=O)c2c(n1[O-])CCC2	i	-0.41	-3.8%
O=C(NCc1ccccn1)c1cc2cc(Br)ccc2oc1=O	i	-1.2	4.7%
O=C(NCCc1ccccc1)c1ccc(Cl)nc1	i	·	-1.1%
COc1ccccc1N1CCN(C(=O)C2CC=CCC2C(=O)O)CC1 (centres undefined)	i	0.12	2.0%
COc1cccc(CNn2cnnc2)c1OCc1ccc(F)cc1	i	0.69	3.4%
CCCCc1cc(=O)oc2cc(C)cc(OCc3nn[nH]n3)c12	i	-0.45	-1.2%
CC(C)C(=O)Nc1cc(=O)[nH]c2ncnn12	i	-0.21	-7.6%
CCN(c1ccccc1)c1ncnc2c1cnn2-c1ccccc1	i	-0.27	-10%
COc1ccc2[nH]c(=O)c(CN(CCO)C(=O)NCc3ccccc3)cc2c1	i	·	-3.2%
c1ccc(-c2nnc(-c3ccccc3)c(-c3c[nH]c4ccccc34)n2)cc1	i	·	2.5%
CSc1ncc(Cl)c(C(=O)Nc2nnc(SC)s2)n1	i	-0.2	-2.6%
O=C(O)CCCC(=O)Nc1ccc(C(=O)NCc2cccnc2)cc1	i	1.7	-2.3%
CCN(CC)CCNC(=O)c1ccc(NC(C)=O)cc1	i	-0.24	-3.8%
O=C(NCc1ccc2c(c1)OCO2)C1CC(=O)N(c2ccc(O)cc2)C1 (centres undefined)	i	0.4	7.1%
CC(=O)Nc1c(C(=O)O)oc2ccccc12	i	-1	0.1%
O=C(NCC12CC3CC(CC(C3)C1)C2)c1nn2c(c1Cl)NC(c1ccco1)CC2C(F)(F)F (centres undefined)	i	-0.34	-12%
Cc1cc(C(=O)O)c2ccccc2n1	i	·	2.7%
COC(=O)C(NS(=O)(=O)c1ccc(NC(C)=O)cc1)C(C)C (centres undefined)	i	-1.3	-0.1%
COc1cccc(CNCc2ccccn2)c1OC	i	0.69	5.6%
CC(c1ccccc1)n1cc(C(=O)NCCCn2ccnc2)nn1 (centres undefined)	i	0.77	4.4%
CC(C(=O)NCCC1=CCCCC1)N1C(=O)c2ccccc2C1=O (centres undefined)	i	1.9	5.9%
Cc1noc(C)c1CSc1nc2cc(S(=O)(=O)N3CCOCC3)ccc2o1	i	-0.08	6.2%
Cc1ccccc1NC(=O)CN(C)S(=O)(=O)c1cccc2cccnc12	i	-0.43	3.2%
O=C(CS(=O)CC(=O)Nc1cccc2c1CCCC2)Nc1ccc(F)cc1 (centres undefined)	i	0.21	1.6%
O=C(NCc1cccnc1)c1cccc(Cl)c1	i	-0.12	9.9%
CC(C)C(C(=O)NCc1ccco1)N(C(=O)CNS(=O)(=O)c1ccc(Cl)cc1)C1CCCC1 (centres undefined)	i	-0.72	2.5%
Cc1cc2c(=O)[nH]cnc2s1	i	·	-1.4%
COc1cccc(C=Nc2cccnc2)c1O	i	-0.29	1.2%
Cc1nc(CNS(=O)(=O)c2cccnc2)cs1	i	3.1	-0.1%
Cc1csc(SCCn2c(N3CCOCC3)nc3c2c(=O)[nH]c(=O)n3C)n1	i	-0.21	2.6%
COc1cccc(C2=NOC(C(=O)N3CCc4ccccc4C3)C2)c1 (centres undefined)	i	0.72	0.1%
CCN(C(=O)CSc1nc2nc(C)cc(C)n2n1)c1ccccc1	i	-0.91	1.6%
CC(=O)C1=C(C)NC(SCC(=O)c2ccc(C)cc2)=C(C#N)C1c1ccco1 (centres undefined)	i	-0.27	-10%

Compound activity deposited in PubChem by several laboratories.
